Screens (PubChem BioAssay)
RE007 growth inh: qHTS Assay for Inhibitors of the HIV-1 protein Vpr; S. pombe RE007 Vpr strain, BacTiter-Glo ATP luminescence, 24 h; control for the full effect not named in the record; Potency, µM (series often up to 92.2 µM), for the others: at the highest dose activity change, negative = less growth; 0.21% of 360,000 active; AID 651644, 2012; active = well fitted falling curve with a large enough effect; inconclusive = small, poorly fitted or top-dose-only effect; inactive = no such curve, though single readings can be large or run the other way;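 also: nearly all actives have a fitted effect of over 50% in size; the assay follows cell death caused by Vpr and the record does not say whether a fall means rescue or toxicity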
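Fission yeast RE007 carrying one integrated HIV-1 vpr copy, seeded at OD 0.01 in PMG+AL medium with 23 nL pinned compound. Grown 24 h at 30 degrees; viability read by BacTiter-Glo luminescence after 5 min.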
2A StopGo: High Throughput Screening for Foot and Mouth Disease Virus Antivirals. human cells with a luciferase reporter of 2A StopGo recoding; control for the full effect not named in the record. Potency, µM (top dose mostly 57.9 µM), for the others: at the top dose signal change, negative = less light. 1.2% of 410,000 active; active = well fitted falling curve with a large enough effect; inconclusive = small, poorly fitted or top-dose-only effect; inactive = no such curve, though single readings can be large or run the other way; tested in HEK293T cells; also: nearly all actives have a fitted effect of over 45% in size; luciferase light after 4 h
* = called active by the depositor; ? = inconclusive; [ ] = dose if it differs, or a comment. % is scaled to controls: 0 for no effect and ±100 for the full control effect; potency is read from the fitted curve at half-maximal effect. The list is partial; count on the stated rates, not on these rows.

Compound	RE007 growth inh	2A StopGo
C[C@@H]1CCCCO[C@H](CN(C)C(=O)c2ccccc2)[C@@H](C)CN([C@H](C)CO)C(=O)c2cc(NC(=O)NC3CCCCC3)ccc2O1	-2%	-14%
COc1ccccc1CN(C)C(=O)c1cc(S(=O)(=O)N2CCCCCC2)ccc1OC	-3%	-12%
C[C@H](CO)N1C[C@H](C)[C@@H](CN(C)C(=O)c2ccccc2)Oc2cc(C#C[C@@H](C)O)ccc2S1(=O)=O	7%	23%
O=[N+]([O-])c1cccc(COc2ccccc2CO)c1	-22%	-13%
COc1cc(-c2c(C(=O)c3ccccc3)[nH]c(N)c2C(N)=O)ccc1F	15%	-20%
CC(C)c1ccc([C@@H]2O[C@H](CCc3ccccc3)CC3=C2C(=O)OC(C)(C)O3)cc1	2%	-10%
O=C(Nc1ccc(F)cc1)C(c1cccc(F)c1)N1CCN(CC(=O)N2CCCC2)CC1 (stereo not drawn)	-2%	-7%
CCSc1ccc(-c2cc(NC=O)c3ncc(-c4cccc(C(=O)N(C)C)c4)n3c2)cc1	-3%	-29%
O=C(NC(c1ccc(F)cc1)c1ccc2ccccc2n1)C1CCN(Cc2ccc3ccccc3n2)CC1 (stereo not drawn)	-9%[18.4 µM]	-19%
CC(C)OC(=O)/C=C1\C[C@@H](c2ccccc2C(F)(F)F)O[C@@H](c2ccccc2C(F)(F)F)O1	10%	-15%
CSc1ccc(CNC(=O)C2CCC(=O)N(CC3CCCCC3)C2)cc1 (stereo not drawn)	-9%	-25%
COC(=O)c1ccc(N2C(c3cc(OC)cc(OC)c3)=Cc3ccc(-c4cccnc4)cc3C2CC(=O)C2CC2)cc1 (stereo not drawn)	0%	-23%
COc1cccc(S(=O)(=O)N(C)C[C@H]2Oc3ncc(Br)cc3C(=O)N([C@H](C)CO)C[C@H]2C)c1	-12%	-23%
COC(=O)[C@]12CCCCC=C1N(Cc1ccco1)C(=O)[C@H](CC(=O)N1CCC(c3ccccc3)CC1)C2	4%	-22%
CC1=C(C(=O)Nc2cc(C(=O)N3CCN(c4ccc(Cl)cc4)CC3)ccc2C)SCCO1	-5%	22µM*
CC(C)(C)C1CCC(CN2CCC(CN3C(=O)C(=O)NC[C@@H]3Cc3ccccc3)CC2)CC1 (stereo partly drawn)	-12%	-25%
CCOC(=O)CNC(=O)N1Cc2cc(N3CCOCC3)ccc2-n2nncc2C1	2%	-12%
COc1ccc2oc(C(=O)OCC(=O)NC3CCS(=O)(=O)C3)c(C)c2c1 (stereo not drawn)	-8%	-7%
CCc1nc2c(OCC(=O)c3ccc(Cl)cc3Cl)cccn2c1N(C)C(=O)c1ccncc1	-18%	-5%
COCCNC(=O)C1(C)CCCN(Cc2cc(-c3ccccc3)nn2C)C1 (stereo not drawn)	6%	8%

In a second layout: 3 of the compounds above
COCCNC(=O)C1(C)CCCN(Cc2cc(-c3ccccc3)nn2C)C1 (stereo not drawn)
  RE007 growth inh: 6%
  2A StopGo: 8%
O=C(NC(c1ccc(F)cc1)c1ccc2ccccc2n1)C1CCN(Cc2ccc3ccccc3n2)CC1 (stereo not drawn)
  RE007 growth inh: -9%[18.4 µM]
  2A StopGo: -19%
C[C@H](CO)N1C[C@H](C)[C@@H](CN(C)C(=O)c2ccccc2)Oc2cc(C#C[C@@H](C)O)ccc2S1(=O)=O
  RE007 growth inh: 7%
  2A StopGo: 23%

Next section
Compound	RE007 growth inh	2A StopGo
CCNC(=O)C1(C)CCN(C(=O)c2ccc(N(C)C)cc2)C1 (stereo not drawn)	6%	-19%
Cc1cccc(S(=O)(=O)NC(=O)C2(C)CCN2C(=O)c2ccccc2CCc2ccccc2)c1 (stereo not drawn)	15%[18.4 µM]	-1%
Cc1ccc(C(C)C)c(OCCOCCN2CCNCC2)c1	7%	-6%
COc1ccc(CC(=O)Nc2cc(S(=O)(=O)N3CCOCC3)ccc2N2CCCC2)cc1	2%	-18%
CCN(CC)C(=O)c1ccc2sc([C@H]3C[C@H](O)[C@@H](CO)O3)nc2c1	2%[18.4 µM]	15%
CCOC(=O)C1=C(C#N)C(C(=O)OCC)c2ncccc21 (stereo not drawn)	-16%	4%
O=C(CN1CCN(C(=O)c2ccco2)CC1)Nc1cc(S(=O)(=O)N2CCCC2)ccc1Cl	21%	0%
O=C(Nc1nccs1)c1csc([C@H]2C[C@H](O)[C@@H](CO)O2)n1	15%	34%[activator]
CN(C)c1cccc(CNC(=O)c2csc([C@@H]3C[C@H](O)[C@@H](CO)O3)n2)c1	-14%	-8%
O=C(/C=C/c1ccc(F)cc1)Nc1cc(S(=O)(=O)N2CCOCC2)ccc1N1CCOCC1	1%	-2%
C[C@@H]1CN([C@H](C)CO)S(=O)(=O)c2ccc(-c3cccc(C#N)c3)cc2O[C@H]1CN(C)C(=O)Nc1cc(F)ccc1F	18%	-26%
N#CC1c2ccccc2-n2nncc2CN1S(=O)(=O)c1ccccc1 (stereo not drawn)	1%	-6%
Cc1cc(C)cc(NC(=O)C2COc3ccccc3O2)c1 (stereo not drawn)	-11%	-15%
COc1ccc(CCCNC(=O)C2Cc3c(-c4ccc(NC(C)=O)cc4)ccnc3O2)cc1 (stereo not drawn)	-8%	-21%
CC(C)C(N)c1csc(Nc2ccccn2)n1 (stereo not drawn)	5%[18.4 µM]	2%
Cc1cccc(NC(=O)CSc2nnc3ccc(-c4cccnc4)nn23)c1	13%	-20%
O=c1[nH]snc1-c1c(Cl)cccc1Cl	1%	-16%
Cc1noc(C)c1NC(=O)N(C)C[C@@H]1Oc2ncc(Br)cc2C(=O)N([C@@H](C)CO)C[C@@H]1C	6%	-8%
CSc1nc(=O)n(CCC#N)nc1SC	1%	-12%
CCC(CC)C(=O)N(C)c1c(C)nc2c(OCc3ccccc3C)cccn12	?	-29%
CCc1nc2ccc(C(=O)Nc3cc(-c4ccccc4)ccc3OC)cn2c1N(C)Cc1nccs1	-3%	-16%
Cc1[nH]c(=O)[nH]c(=S)c1C(=O)Nc1ccc(Cl)c(Cl)c1	107%	-1%
O=C(NCc1ccc(F)cc1)c1cc(C2CCCCN2C(=O)OCCF)on1 (stereo not drawn)	25%	-10%
CCC(=O)OCC(=O)[C@@]1(OC(=O)CC)[C@@H](C)C[C@H]2[C@@H]3CCC4=CC(=O)C=C[C@]4(C)[C@@]3(Cl)[C@@H](O)C[C@@]21C	-9%	-27%
CC(C)C[C@H]1CN([C@@H](Cc2ccc(O)cc2)CN2CCC[C@@H]2CN2C(=O)C(=O)NC[C@@H]2Cc2ccccc2)C(=O)C(=O)N1CC1CCCCCC1	9%	9%
COCCCNC(=O)C[C@@H]1C[C@@]2(C(=O)OC)CC(C)(C)CC=C2N(CCc2ccc(OC)c(OC)c2)C1=O	-8%	-24%
Brc1ccc([C@H]2C=C[C@H]3CCCN4CC[C@H]2[C@@H]3[C@]42CO2)cc1	-29%	?
CCC(CC)C(=O)N(C)c1c(C)nc2c(OCc3ccccc3C(=O)OC)cccn12	4%	-20%
O=C(CC[C@H]1O[C@@H](n2ccc(=O)[nH]c2=O)[C@H](O)[C@@H]1O)N[C@H](Cc1ccccc1)C(=O)NCCCN1CCCC1=O	39%	-5%
O=S1(=O)c2c(Oc3cccc4ccccc34)cccc2OC(COCc2ccccc2)CN1C1CCCC1 (stereo not drawn)	6%	14%
Cc1cc(C(=O)N2CCCC2(C)C(=O)O)c(C)o1 (stereo not drawn)	4%	-5%
COc1ccc(C(=O)N2CCOCC2c2cc(C(=O)NCc3ccccc3)no2)cc1 (stereo not drawn)	0%[18.4 µM]	4%
CC(C)(C)CNC(=O)C1(C)CCN1C(=O)c1ccccc1CCc1ccccc1 (stereo not drawn)	2%[18.4 µM]	-14%
COc1cccc(-c2cnc3c(c2)C(=O)N([C@H](C)CO)C[C@@H](C)[C@H](CN(C)C(=O)Nc2ccccc2F)O3)c1	0%	0%
OCCCNc1ncnc2c1ncn2[C@H]1CN(Cc2ccc3c(c2)OCO3)C[C@@H](CO)O1	-8%	-14%
C/C=C/c1cccc(-c2nc(C(=O)N3CCCCC3)cc3c2[C@H](CCO)N(C(=O)NC(C)C)C3)c1	2%	-15%
COc1ccc(CCNC(=O)Nc2ccc3c(c2)c(=O)n(C)n3C)cc1OC	9%	6%
Cc1ccc(Cc2c(-c3cccc(Cl)c3)nc3ccc(Cl)cn23)cc1	-3%	-3%
COc1cc2c(cc1OC)/C(=C/C(=O)OCc1ccccc1)OC2	-8%	-2%
COc1ccc(-c2ccc(N3C(c4cc(OC)cc(OC)c4)=Cc4ccc(OC)cc4C3CC(C)=O)cc2)cc1 (stereo not drawn)	-11%	-13%

Continued; it opens with the two that closed the last part.
Screens in order: RE007 growth inh, 2A StopGo
COc1cc2c(cc1OC)/C(=C/C(=O)OCc1ccccc1)OC2
  -8%, -2%
COc1ccc(-c2ccc(N3C(c4cc(OC)cc(OC)c4)=Cc4ccc(OC)cc4C3CC(C)=O)cc2)cc1 (stereo not drawn)
  -11%, -13%
Cc1cc(F)ccc1-c1cc(C(=O)Nc2ccc(F)cc2)[nH]n1
  -13%, 32%[activator]
Nc1ccc2c(c1)[nH]c(=O)c1cc(N)ccc12
  -23%, 0%
O=C1NC(Cc2ccccc2)c2nc3ccc(Cl)cc3c(=O)n2-c2ncccc21 (stereo not drawn)
  -1%, -3%
OC(c1ccc(F)c(F)c1)c1nc(-c2cncnc2)cs1 (stereo not drawn)
  7%, -11%
C[C@@H]1NC(=O)N[C@@H]1CCCCCC(=O)O
  12%, -22%
COc1cc(C#N)c(NC(=S)N2CCN(C(=O)c3ccco3)CC2)cc1OC
  5%, 0%
COc1cccc(C#CC2=CC(=O)C[C@H](c3ccc(F)cc3)C2)c1
  7%, ?
CCC(C)[C@H](NS(=O)(=O)c1ccc(F)cc1Br)C(=O)OC (stereo partly drawn)
  -1%, -12%
CCOc1ccc2nc(N/C(N)=N/S(=O)(=O)c3ccc(C)cc3)nc(C)c2c1
  5%, 53%[activator]
Cc1ccc(CNCCCn2cnc3c(OCc4ccccc4)ncnc32)o1
  -15%, -4%
Cc1cc(C)c2nc3sc(=Cc4ccc(-c5ccccc5C(=O)O)o4)c(=O)n3c2c1
  -17%, -14%
CC(C)(C)c1ccc(CC(=O)N2CCC2(C)C(=O)NCc2cccc3ccccc23)cc1 (stereo not drawn)
  9%, ?
OCCOCCn1c(CCNc2nc(-c3ccc(Cl)cc3)cs2)nc2cc(Cl)c(Cl)cc21
  -3%, -15%
COc1ccc(S(=O)(=O)NC(=O)C2(C)CCN2C(=O)Cc2cc(C)cc(C)c2)cc1 (stereo not drawn)
  13%[18.4 µM], -5%
Cc1ccccc1Oc1ccc2c(c1)[C@@H]1C[C@H](N(C)C(=O)Nc3cc(Cl)cc(Cl)c3)[C@H]([C@H](C)O)C(=O)N1CC2
  11%, -29%
COCCNC(=O)C1(C)Cc2c(-c3cccc(C(F)(F)F)c3)ccnc2O1 (stereo not drawn)
  -1%, -28%
O=C(NN=Cc1ccc2c(c1)OCO2)c1ccc([N+](=O)[O-])cc1
  3%[18.4 µM], -6%
O=C1NC[C@H](Cc2ccccc2)N(C[C@H]2CCCN2C[C@H](Cc2ccccc2)N2C[C@H](Cc3ccccc3)N(CCc3ccccc3)C(=O)C2=O)C1=O
  3%, ?
Cc1ccn2c(CC(C)(C)C)c(-c3ccc(F)cc3)nc2c1
  -12%, 27%
CCCCCC(=O)N1C[C@H](O)[C@@H](n2cc(C3CC3)nn2)C[C@@H]1c1ccc(C)cc1
  -3%, -24%
CN(CCc1ccccc1)C(=O)c1ccc(NC(=O)Cc2ccc(NC(=O)C3CCN(C(=O)C4CCCCC4)CC3)cc2)cc1
  -6%, -28%
C(=NN=Cc1c[nH]c2ccccc12)c1c[nH]c2ccccc12
  -19%, 68%[activator]
CCCCNc1c(-c2ccc(F)cc2)nc2nc(C)cc(C)n12
  -29%, -10%
CC(C)(C)n1nnnc1C(c1ccccc1)N1CCN(C/C=C/c2ccccc2)CC1 (stereo not drawn)
  -21%, -6%
Cn1c(NCCc2ccncc2)nc2cc(-c3ccccc3)sc2c1=O
  0%, 22%
C[C@H](NC(=O)[C@@H]1CCCN1C(=O)OC(C)(C)C)c1ccccc1
  2%, -13%
CC(C)C[C@H]1CN(CCCC[C@@H]2CNC(=O)C(=O)N2CCc2ccccc2)C(=O)C(=O)N1CCc1ccc(O)cc1
  -8%, -2%
O=C(CCN1C(=O)NC2(CCCC2)C1=O)Nc1ccc(Sc2ccc(Br)cc2)cc1
  1%, -12%
O=C(C[C@@H]1C[C@@H]2c3cc(NC(=O)C4CCC4)ccc3O[C@@H]2[C@@H](CO)O1)NCc1ccc(Cl)cc1
  2%, ?
COc1cccc(-c2cnc(C(O)c3ccc(F)c(F)c3)[nH]2)c1 (stereo not drawn)
  -3%[18.4 µM], 71%[activator]
O=C(NCc1cccnc1)c1cc(C2CCCN(C(=O)c3ccccn3)C2)on1 (stereo not drawn)
  14%, -17%
CC1=C(C(=O)N2CCOCC2)CC(CC(=O)NCCc2ccccn2)C(=O)N1CCC1=CCCCC1 (stereo not drawn)
  -5%, -19%
O=c1c(OCc2ccccc2)cccn1Cc1ccccc1
  -11%, 125%[activator]
